Compound activity from PubChem BioAssay.
DUX4 inh: blocks DUX4-driven transcriptional activation; 293T-iDUX4 ZSCAN4-Gaussia luciferase reporter, 24 h; hits give low values; 0.8% of 37,000 active; activity change, negative = inhibition, % (concentration not given with the values);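 active means -10% or lower and over 25 points stronger than a control reporter; inconclusive means -10% or lower with a smaller gap; inactive means above -10%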;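 further: 0% = median of neutral control wells and -100% = median of positive control wells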
DUX4 inh difference: further read-out of DUX4 inh, marked with its call; Gaussia minus Italica difference, %; measured here: selective DUX4 reporter inhibition;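 worked out from the two reporters; negative = selective loss of the DUX4 reporter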
DUX4 inh control: recorded beside DUX4 inh, whose call it bears; activity change, negative = inhibition, %; measured here: Italica tet-on control reporter;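 0 = neutral control and -100 = positive control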
* marks the source's active call; other numbers are inactive results; ? = inconclusive; . = not tested or not shown; & = joins results of further samples. Not all compounds are listed; rates above refer to the full screens.

Values run as follows: DUX4 inh | DUX4 inh difference | DUX4 inh control
- O=C([C@@H]1[C@@H](CO)[C@@H]2Cn3c(cccc3=O)[C@@H]2N1C(=O)CC1CC1)N1CCc2ccccc2C1
    3.0 | 2.0 | 0.9
- CC(=O)N1CC2(C1)[C@@H](c1ccc(-c3ccccc3C)cc1)[C@H](CO)N2C(C)=O
    6.3 | -0.5 | 6.8
- Cc1cccc(-c2ccc(C3[C@@H]4CN(C(=O)C5CCOCC5)C[C@H]3N4)cc2)c1 (stereo partly specified)
    7.1 | 22.8 | -15.6
- O=C(Nc1ccc2c(c1)[C@H]1C[C@@H](CC(=O)N3CCOCC3)O[C@@H](CO)[C@H]1O2)c1cccnc1
    -4.0 | -5.6 | 1.6
- N#C[C@H]1[C@H](c2ccccc2)[C@@H](CO)N1C(=O)CN1CCOCC1
    2.3 | 0.7 | 1.6
- COc1ccc(S(=O)(=O)N(C)C[C@H]2OCc3cnnn3CCCC(=O)N([C@H](C)CO)C[C@H]2C)cc1
    0.6 | -1.8 | 2.4
- CNC[C@H]1OCc2cn(nn2)CCCC(=O)N([C@@H](C)CO)C[C@H]1C
    7.6 | 8.2 | -0.6
- C[C@@H]1CN([C@@H](C)CO)C(=O)c2cc(NC(=O)c3ccccc3)ccc2O[C@@H](C)CCCCO[C@@H]1CN(C)C(=O)CCCN(C)C
    -1.3 | -0.7 | -0.6
- C/C=C/c1ccc([C@H]2[C@@H](CO)N(CC3CCOCC3)C23CN(S(=O)(=O)CC)C3)cc1
    -4.7 | -3.0 | -1.6
- C[C@@H](NC(=O)C[C@H]1C[C@@H]2c3cc(NC(=O)c4cccnc4)ccc3O[C@@H]2[C@@H](CO)O1)c1ccccc1
    2.9 | -0.1 | 3.0
- CCc1cnc(N2[C@@H](C#N)[C@@H](c3ccccc3)[C@@H]2CO)s1
    3.3 | 1.7 | 1.6
- C[C@H]1CN([C@@H](C)CO)S(=O)(=O)c2ccc(/C=C/c3ccccc3)cc2O[C@@H]1CN(C)C(=O)NC1CCCCC1
    -1.3 | -0.6 | -0.7
- CCCNC(=O)N1[C@@H]2CNC[C@H]1C2c1ccc(-c2cccc(C)c2)cc1 (stereo partly specified)
    21.1&10.0 | 8.2&9.1 | 12.9&0.9
- COCC(=O)N(C)C[C@@H]1Oc2cc(C#CC(C)(C)O)ccc2S(=O)(=O)N([C@H](C)CO)C[C@H]1C
    -1.5 | -7.2 | 5.7
- CNC(=O)C[C@@H]1CC[C@H]2[C@@H](COC[C@H](O)CN2C(=O)Nc2ccc3c(c2)OCO3)O1
    6.1 | 3.0 | 3.1
- O=S(=O)(c1cccc(F)c1)N1CC[C@@H]2[C@H](CO)Nc3ccc(C#Cc4cccc(F)c4)cc3[C@@H]21
    ? | . | .
- CCCNC(=O)Nc1ccc2c(c1)OC[C@H](C)N(CC1CCCC1)C[C@@H](C)[C@H](OC)CN(C)C2=O
    -2.0 | 4.2 | -6.3
- COc1ccc(S(=O)(=O)Nc2ccc3c(c2)C(=O)N([C@@H](C)CO)C[C@H](C)[C@H](CN(C)C(=O)NC2CCCCC2)O3)cc1
    -0.7 | 3.3 | -4.0
- C[C@@H]1CN([C@H](C)CO)C(=O)Cc2cc(NC(=O)Nc3cccc4ccccc34)ccc2O[C@H]1CN(C)S(=O)(=O)c1ccc(Cl)cc1
    -0.4 | -2.8 | 2.4
- CCCNC(=O)[C@@H]1[C@@H](CO)[C@@H]2Cn3c(ccc(C4=CCCCC4)c3=O)[C@@H]2N1C(=O)c1cnccn1
    -8.2 | -21.4 | 13.1
- COc1ccc(S(=O)(=O)N[C@@H]2CC[C@@H](CCn3cc(-c4ccccc4F)nn3)O[C@@H]2CO)cc1
    -0.7 | -2.8 | 2.2
- COc1ccc(NC(=O)Nc2ccc3c(c2)[C@@H]2C[C@@H](CC(=O)N4CCc5ccccc5C4)O[C@@H](CO)[C@@H]2O3)cc1
    ? | . | .
- COC(=O)C[C@H]1CC[C@@H]2[C@H](COc3ccc(NC(=O)Nc4ccc(Cl)cc4)cc3C(=O)N2C)O1
    4.0 | 3.2 | 0.8
- CC(=O)N1CC2(C1)[C@@H](c1ccccc1)[C@H](CO)N2C(=O)c1ccncc1
    -2.2 | -3.4 | 1.2
- O=C(C[C@H]1CC[C@H]2[C@@H](COC[C@H](O)CN2Cc2cccc(Cl)c2)O1)N1CCCCC1
    -6.0 | -1.7 | -4.3
- COCC(=O)Nc1ccc2c(c1)[C@@H]1C[C@@H](CC(=O)NCc3ccc(-c4ccccc4)cc3)O[C@@H](CO)[C@@H]1O2
    ? | . | .
- CN(C)C(=O)c1ccc(-c2ccccc2[C@@H]2[C@@H](C#N)N(C(=O)C3CCC3)[C@H]2CO)cc1
    8.4 | -0.8 | 9.1
- COc1cccc(CNC(=O)C[C@@H]2C=C[C@@H](NC(=O)C3CCOCC3)[C@H](CO)O2)c1
    1.9 | 5.0 | -3.1
- N#C[C@H]1[C@@H](c2ccc(C3=CCCC3)cc2)[C@@H](CO)N1C(=O)C1CCCC1
    2.0 | 1.2 | 0.8
- COc1cccc(CN(C)C[C@H]2OCc3ccccc3-c3ccccc3C(=O)N([C@H](C)CO)C[C@H]2C)c1
    -6.8 | -11.0 | 4.2
- COc1ccc(NC(=O)N2CCCCN3[C@H](C2)[C@H](c2ccc(C#CCC(C)C)cc2)[C@@H]3CO)cc1
    15.3 | 9.1 | 6.2
- O=C(C[C@H]1CC[C@H]2[C@@H](COC[C@H](O)CN2Cc2cccc(-c3ccncc3)c2)O1)N1CCN(c2ccccc2)CC1
    ? | . | .
- Cc1noc(C)c1NC(=O)N(C)C[C@@H]1Oc2c(NC(=O)c3nc4ccccc4s3)cccc2C(=O)N([C@H](C)CO)C[C@@H]1C
    -5.2 | -5.1 | -0.1
- CNC[C@H]1OCCCC[C@H](C)Oc2ccc(NS(=O)(=O)c3cccs3)cc2C(=O)N([C@H](C)CO)C[C@@H]1C
    2.2 | 2.7 | -0.5
- COc1ccc(CN2C[C@H](C)[C@@H](OC)CN(C)C(=O)c3cc(NC(=O)C4CC4)ccc3OC[C@@H]2C)cc1
    1.4 | -4.7 | 6.0
- C[C@H]1CN([C@@H](C)CO)C(=O)c2cc(NC(=O)Nc3cccc4ccccc34)ccc2O[C@@H]1CN(C)S(=O)(=O)c1cccs1
    -2.2 | -2.2 | 0.0
- COc1ccccc1C(=O)N1C[C@@H]2[C@H](c3ccccc31)[C@@H](CO)N2Cc1ccc(F)cc1
    -3.2 | -6.4 | 3.2
- C[C@H](CO)N1C[C@H](C)[C@H](CN(C)S(=O)(=O)c2cn(C)cn2)Oc2c(NC(=O)c3cnccn3)cccc2C1=O
    1.7 | -0.1 | 1.9
- O=C(Nc1ccccc1F)N1CC2(C1)[C@H](c1ccccc1)[C@@H](CO)N2C(=O)CC1CC1
    0.8 | -1.6 | 2.3
- COc1ccc2c3c([nH]c2c1)[C@H](CO)N(C)CC31CCN(S(=O)(=O)c2ccc(C)cc2)CC1
    17.5 | 7.1 | 10.4

More entries:
molecule | DUX4 inh | DUX4 inh difference | DUX4 inh control
C[C@@H]1CN([C@@H](C)CO)C(=O)c2ccccc2-c2ccccc2CO[C@H]1CN(C)Cc1ccncc1 | -3.0 | -10.2 | 7.2
Fc1cccc(-c2ccc(C3[C@H]4CNC[C@@H]3N4Cc3ccccc3F)cc2)c1 (stereo partly specified) | ? | . | .
CC(C)NC(=O)N(C)C[C@H]1Oc2c(NS(=O)(=O)c3cccs3)cccc2C(=O)N([C@H](C)CO)C[C@H]1C | 0.7 | 2.4 | -1.6
O=C(c1ccncc1)N1C[C@H]2[C@@H](c3ccccc31)[C@@H](CO)N2C(=O)c1ccccc1F | 5.2 | 2.8 | 2.4
CC(C)NC(=O)Nc1ccc2c(c1)C(=O)N([C@@H](C)CO)C[C@H](C)[C@H](CN(C)C(=O)C1CCCCC1)OCCCC[C@@H](C)O2 | 0.9 | 2.3 | -1.5
C[C@@H]1CN([C@@H](C)CO)S(=O)(=O)c2ccc(Br)cc2O[C@@H]1CN(C)Cc1ccc2c(c1)OCO2 | -3.7 | -3.4 | -0.4
COCC(=O)N1CC2(C1)CN(Cc1ccccn1)[C@@H](CO)c1[nH]c3cc(OC)ccc3c12 | 21.2 | 14.1 | 7.1
C[C@H](NC(=O)C[C@@H]1C=C[C@H](NC(=O)c2cccnc2)[C@@H](CO)O1)c1ccccc1 | 0.2 | -0.6 | 0.8
CCCNC(=O)Nc1ccc2c(c1)C(=O)N(C)C[C@@H](OC)[C@H](C)CN(C)[C@@H](C)CO2 | -2.3 | -1.7 | -0.6
CCN(C[C@H]1[C@H](c2ccccc2)[C@H](CO)N1C(=O)C1CC1)C(=O)NC1CCCC1 | -0.7 | -6.4 | 5.6
O=C(c1cccnc1)N1CC[C@@H]2[C@H]1c1cc(-c3cccc(F)c3)ccc1N[C@@H]2CO | ? | . | .
CS(=O)(=O)N1CC2(C1)[C@H](c1ccccc1)[C@H](CO)N2Cc1ccccc1 | 13.9 | 11.5 | 2.5
O=C(CC1CC1)Nc1ccc2c(c1)[C@H]1C[C@@H](CC(=O)N3CCCCC3)O[C@@H](CO)[C@H]1O2 | 3.6 | -1.4 | 4.9
O=C(C1CCOCC1)N1CC(=O)N2[C@H](CO)[C@H](c3ccc(-c4cccnc4)cc3)[C@@H]2C1 | 17.0 | 2.5 | 14.6
O=C(NCc1ccc2c(c1)OCO2)[C@H]1[C@H](CO)[C@H]2Cn3c(cccc3=O)[C@@H]1N2Cc1cccnc1 | 4.2 | 2.0 | 2.2

An excerpt of these results, with values ahead of the structure:
DUX4 inh,DUX4 inh difference,DUX4 inh control,molecule
0.9,2.3,-1.5,CC(C)NC(=O)Nc1ccc2c(c1)C(=O)N([C@@H](C)CO)C[C@H](C)[C@H](CN(C)C(=O)C1CCCCC1)OCCCC[C@@H](C)O2
-3.7,-3.4,-0.4,C[C@@H]1CN([C@@H](C)CO)S(=O)(=O)c2ccc(Br)cc2O[C@@H]1CN(C)Cc1ccc2c(c1)OCO2

Next entries
molecule | DUX4 inh | DUX4 inh difference | DUX4 inh control
C[C@@H]1CN([C@H](C)CO)C(=O)c2cc(N(C)C)ccc2O[C@@H]1CN(C)C(=O)Nc1cccc2ccccc12 | 5.1 | -1.8 | 6.9
O=C(CC1CC1)N1[C@@H]2CN(S(=O)(=O)c3ccccc3)c3ccccc3[C@@H]2[C@@H]1CO | 2.6 | 4.0 | -1.4
C[C@H]1CN([C@@H](C)CO)C(=O)CCCn2nncc2CO[C@H]1CN(C)C(=O)Nc1ccccc1F | 2.9 | -1.2 | 4.2
O=C(C[C@@H]1C[C@@H]2c3cc(NC(=O)c4cccnc4)ccc3O[C@@H]2[C@@H](CO)O1)NCC1CC1 | 4.9 | 3.4 | 1.6
CN(C)C(=O)C[C@@H]1CC[C@H](NC(=O)C2CCOCC2)[C@H](CO)O1 | 2.4 | -0.6 | 3.0
COc1ccccc1C#Cc1ccc2c(c1)[C@H]1[C@H](CCN1S(=O)(=O)c1ccc(C)cc1)[C@H](CO)N2C | -9.2 | -1.2 | -8.0
CC(C)c1cccc(NC(=O)C[C@H]2CC[C@H]3[C@@H](COc4ccc(NC(=O)c5ccc(C#N)cc5)cc4C(=O)N3C)O2)c1 | -2.0 | -5.2 | 3.2
C/C=C/c1ccc([C@@H]2[C@H](CO)N(C(=O)c3ccccc3)C23CN(C(C)=O)C3)cc1 | 9.2 | 14.2 | -5.0
C[C@H]1CN([C@@H](C)CO)C(=O)c2cccc(NS(=O)(=O)c3ccc(F)cc3)c2O[C@@H]1CN(C)C(=O)NC1CCCCC1 | -1.8 | -2.5 | 0.7
C[C@H]1CN([C@@H](C)CO)C(=O)c2cc(C3=CCCCC3)cnc2O[C@@H]1CN(C)C(=O)CN1CCOCC1 | -0.6 | 1.2 | -1.8
CCCN(C)C[C@@H]1OCCCC[C@@H](C)Oc2ccc(N(C)C)cc2C(=O)N([C@@H](C)CO)C[C@@H]1C | -3.5 | -2.4 | -1.0
COc1ccc2c3c([nH]c2c1)[C@H](CO)N(C)CC31CCN(C(=O)C2CC2)CC1 | 22.0 | 22.7 | -0.6
N#C[C@H]1[C@@H](c2ccc(-c3ccncc3)cc2)[C@@H](CO)N1C(=O)C1CCCCC1 | -0.6 | -0.6 | 0.1
C[C@@H]1CCCCO[C@H](CN(C)C(=O)CCC(F)(F)F)[C@H](C)CN([C@@H](C)CO)C(=O)c2cc(NC(=O)CCCCCC(=O)Nc3ccccc3N)ccc2O1 | 0.8 | -0.6 | 1.4
O=C(N[C@@H]1C=C[C@@H](CC(=O)N2CCN(c3ccccc3)CC2)O[C@H]1CO)c1ccccc1 | 2.0 | 8.0 | -6.1
CCCNC(=O)N1CC2(C1)CN(C(=O)CC1CC1)[C@@H](CO)c1[nH]c3cc(OC)ccc3c12 | 19.4 | 9.7 | 9.6
Cc1noc(C)c1S(=O)(=O)N(C)C[C@H]1Oc2c(cccc2N(C)C)C(=O)N([C@@H](C)CO)C[C@H]1C | -5.3 | -5.7 | 0.4
CN(C)CC(=O)N[C@H]1C=C[C@@H](CC(=O)NCc2ccc(Cl)cc2)O[C@@H]1CO | -3.0 | -8.1 | 5.1
CN1c2ccc(-c3ccccc3)cc2[C@H]2[C@H](CCN2C(=O)c2ccncc2)[C@@H]1CO | -4.7 | 32.6 | -37.3

Some of the entries above in another layout.
DUX4 inh,DUX4 inh difference,DUX4 inh control,Structure
2.6,4.0,-1.4,O=C(CC1CC1)N1[C@@H]2CN(S(=O)(=O)c3ccccc3)c3ccccc3[C@@H]2[C@@H]1CO
2.9,-1.2,4.2,C[C@H]1CN([C@@H](C)CO)C(=O)CCCn2nncc2CO[C@H]1CN(C)C(=O)Nc1ccccc1F
4.9,3.4,1.6,O=C(C[C@@H]1C[C@@H]2c3cc(NC(=O)c4cccnc4)ccc3O[C@@H]2[C@@H](CO)O1)NCC1CC1
